CDC25B-CDK2 inh: human CDC25B-CDK2/CyclinA binding inhibition | actives 0.72% (n = 94,000) | P30305+P24941 | z-score (concentration not given with the values) | HTRF CDC25B-CDK2/CyclinA binding, anti-His/anti-Flag; hits give high values;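 further: score is relative to mean and SD of negative controls; strong numbers were not always called active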
HIV TAR-Tat: HIV-1 TAR-Tat binding disruption; AID 1259389; HIV-1 TAR RNA, Tat peptide displacement FRET; hits give high values; actives 0.6% (n = 100,000); z-score (concentration not given with the values);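 further: score is relative to mean and SD of negative controls; some compounds called inactive have numbers as strong as hits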
Numbers without * were called inactive; . = no result given.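 How the source made its calls: active means z-score from 3 up in half or more of its runs; inactive means the rest.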

Fields – CDC25B-CDK2 inh	HIV TAR-Tat
Cn1c(C(=O)N2CCN(c3ncccn3)CC2)cc2c(=O)[nH]c3ccccc3c21
→ -0.28	0.18
CCN1CCN(C(c2ccc(F)cc2)c2nnc(-c3ccccc3)o2)CC1 (configuration not stated)
→ .	1.26
CC(=O)c1cccc(Nc2nc(-c3cccs3)cs2)c1
→ -4.24	.
CCc1nc(SCc2cc(=O)c3ccc(C)c(C)c3[nH]2)n[nH]1
→ .	0.43
NC(=O)c1nnc(-c2ccc([N+](=O)[O-])cc2)o1
→ -0.97	.
CC(C)c1ccc(C2N(c3ccc(F)cc3)C(=O)C3CCCN32)cc1 (configuration not stated)
→ -1.28	1.6
O=C(c1cccc2cnccc12)N1CCCC1
→ -1.3	2.93
COc1ccc(Nc2nc(Nc3ccc(OC)cc3)nc(Sc3nncn3C)n2)cc1
→ -1.44	-0.69
Cc1ccc(C)c(OCc2nc(-c3cccc(Br)c3)no2)c1
→ -1.08	0.18
CN1CCN(c2cc(N3CCN(C(=O)c4ccco4)CC3)c3c4c(onc24)-c2ccccc2C3=O)CC1
→ -1.54	0.98

Gathered by group: the compounds so far containing sulfur (three)
Fields – CDC25B-CDK2 inh	HIV TAR-Tat
CC(=O)c1cccc(Nc2nc(-c3cccs3)cs2)c1
→ -4.24	.
CCc1nc(SCc2cc(=O)c3ccc(C)c(C)c3[nH]2)n[nH]1
→ .	0.43
COc1ccc(Nc2nc(Nc3ccc(OC)cc3)nc(Sc3nncn3C)n2)cc1
→ -1.44	-0.69

(cont.)
Fields – CDC25B-CDK2 inh	HIV TAR-Tat
Cc1oc2c(CN3CCC(C)CC3)c(O)ccc2c(=O)c1-c1nc2ccccc2s1
→ -3.9	0.09
COC(=O)c1cnn2c3c(cnc12)CC(C)CC3 (configuration not stated)
→ -0.64	1.23
O=C(c1ccccc1)c1cc(Cl)ccc1NOC(=O)C(F)(F)F
→ -0.29	.
CCOCCOC(=O)C1=C(C)NC2=C(C(=O)CCC2)C1c1cccc(O)c1 (configuration not stated)
→ -0.62	0.71
O=C(Nc1ccc2c(c1)OCCO2)N1Cc2ccccc2Oc2ncccc21
→ .	1.48
COc1ccccc1OCCn1c(CN2CCOCC2)nc2ccccc21
→ 1.24	1.82
O=C(NCC1COc2ccccc2O1)c1cc2c(=O)oc3ccccc3c2s1 (configuration not stated)
→ -0.48	.
CCOCCCNC(=O)c1c(NC(=O)c2cc(=O)c3ccccc3o2)sc2c1CCCC2
→ 1.22	-1.91
O=C(Cn1ncn2nc(-c3cccs3)cc2c1=O)N1CCCC1
→ -1.52	-1.22
Cc1cc(C)n(Cc2c(C(=O)NCc3ccc(C)o3)noc2C)n1
→ .	1.65
CCCCC1CCC(C(=O)Nc2ccc(OCc3cc(=O)n4cccc(C)c4n3)cc2)CC1 (configuration not stated)
→ .	0.12
COc1ccc(NC(=O)CS(=O)(=O)c2ccc3c(c2)S(=O)(=O)N=C(C)N3)c(OC)c1
→ .	1.42
Cc1cccc(OCC(O)Cn2c(C)nc3ccccc32)c1 (configuration not stated)
→ -0.88	-0.99
COc1ccc(OC)c(NC(=O)c2sc3nc4c(cc3c2N)CN(C)CC4)c1
→ -0.8	-0.44
Cc1ccccc1NC(=O)NC1=C(C#N)C(C)(C)Cc2ccccc21
→ -2.28	0.42
O=C(OCC1CC(c2ccccc2)=NO1)c1ccc(Cl)cc1 (configuration not stated)
→ -0.42	1.27
Cc1nn(CCCC(=O)NCc2cccs2)c(=O)c2cc3sccc3n12
→ -1.35	0.23
Cc1oc2ncnc(N3CCCCC3)c2c1C(=O)NC1CC1
→ .	-0.61
Cc1nc(C(=O)NNC(=O)c2ccc(C(C)(C)C)cc2)cs1
→ -1.57	.
CCN1CCN(C(=O)Cn2nc(C)n3cccc3c2=O)CC1
→ -1.39	0.6
CCC1(C)CC(=O)c2c(ccc3oc(C(=O)N4CCc5ccccc5C4)c(C)c23)O1 (configuration not stated)
→ -1.3	2.84
N#CSc1ccc(NC(=O)C2=Cc3cc(Br)ccc3OC=C2)cc1
→ 1.07	0.42
CN(C(=O)Cn1ncc2c1-c1ccccc1OC2)c1ccccc1F
→ -0.6	-0.03
O=C(O)CCC(=O)Nc1ccc(S(=O)(=O)N2CC(=O)NC(=O)C2)cc1
→ -2.29	.
CCCc1nnc(SCc2cc(=O)c3c(C)ccc(C)c3[nH]2)n1C
→ .	0.43
O=C(c1ccccc1)c1c[nH]c2ccncc2c1=O
→ -1.85	3.81
Cc1ccsc1/C=C/c1noc(-c2ccccc2O)n1
→ -0.78	-1.23
Cc1cc(C)c(C#N)c(Nc2ccccc2Cl)n1
→ -1.45	0.08
O=C(c1cc(C2CC2)[nH]n1)N1CCN(C2CCCCC2)CC1
→ .	-0.01
COc1ccc(CCNc2ncnc3sc4c(c23)CCC(C)C4)cc1OC (configuration not stated)
→ 1.23	0.07
O=C(O)C1CSC(c2ccc(F)cc2)N1 (configuration not stated)
→ .	1.98
CCc1[nH]nc2c1C(c1ccc(OC)c(OC)c1)C(C#N)=C(N)O2 (configuration not stated)
→ -0.28	-0.21
C=CCn1c(=O)n(-c2ccc(C)cc2)c(=O)c2cc(-c3ccccc3)sc21
→ -1.9	.
CC1c2cccn2CCN1C(=O)Nc1ccc(F)cc1 (configuration not stated)
→ .	-3.33
Cc1cc2c(cc1S(=O)(=O)N(C)c1ccc(Br)cc1)OCC(=O)N2
→ .	1.93
O=C(c1ccc2c(Cl)c3c(nc2c1)CCCC3)N1CCC(N2CCCCC2)CC1
→ -1.89	.
COc1ccc(-c2cc(=O)c3cc(OC(=O)c4cccs4)ccc3o2)cc1
→ -0.09	.
FC(F)(F)c1ccc(-n2cn[nH]c2=S)cc1
→ -0.43	.
O=C(/C=C/c1cccs1)Nc1ccc(N2CCOCC2)c(C(=O)O)c1
→ -1.69	.
CC(C)(C)c1nc2sc3c(c2c(=O)[nH]1)CCCC3
→ -0.42	0.23
CC1CC(C)CN(C(=O)Cn2c(=O)oc3cc(S(=O)(=O)N4CCCC4)ccc32)C1 (configuration not stated)
→ -0.81	-0.68
Cc1cccc2nc(Cn3c(=O)n(CCCC(=O)NCc4ccco4)c(=O)c4ccccc43)cc(=O)n12
→ -0.52	-1.2
CS(=O)(=O)N(CC(=O)Nc1cc(Cl)cc(Cl)c1)c1cccc(Cl)c1
→ 0.12	.
Cc1ccc2c(CC(=O)NC3CCS(=O)(=O)C3)coc2c1C (configuration not stated)
→ -0.77	1.8
CCOC(=O)c1sc2ncn3c(-c4cccc(C)c4)nnc3c2c1C
→ -1.98	-1.01
c1ccc(CN(Cc2ccccc2)c2ncnc3c2cnn3-c2ccccc2)cc1
→ 0.49	0.63
c1ccc2c(c1)CCC/C2=N\NC1=NCCN1
→ -0.39	.
Cc1ccc(-c2nc(SCc3cc(=O)c4cccc(Cl)c4[nH]3)n[nH]2)cc1
→ .	0.33
COC(=O)C1=C(C)n2cnnc2NC1c1ccc(Cl)cc1 (configuration not stated)
→ -0.53	.
O=C(Oc1cc(-c2ccc(F)cc2)c2oc(=O)sc2c1)c1ccco1
→ -7.98	3.39

A draw from above in order of length of the SMILES, largest number first.
Fields – CDC25B-CDK2 inh	HIV TAR-Tat
CCOC(=O)c1sc2ncn3c(-c4cccc(C)c4)nnc3c2c1C
→ -1.98	-1.01
Cc1ccc2c(CC(=O)NC3CCS(=O)(=O)C3)coc2c1C (configuration not stated)
→ -0.77	1.8
c1ccc2c(c1)CCC/C2=N\NC1=NCCN1
→ -0.39	.

Reprinted at random: two compounds from above, in no set order.
Fields – CDC25B-CDK2 inh	HIV TAR-Tat
O=C(Oc1cc(-c2ccc(F)cc2)c2oc(=O)sc2c1)c1ccco1
→ -7.98	3.39
CCOC(=O)c1sc2ncn3c(-c4cccc(C)c4)nnc3c2c1C
→ -1.98	-1.01

Additional records.
Fields – CDC25B-CDK2 inh	HIV TAR-Tat
CCCS(=O)(=O)c1cscc1NC(=O)CSCCS(=O)(=O)c1ccc(Cl)cc1
→ -1.74	.
CC1(C)CC(=O)C(C2c3ccccc3Oc3ccccc32)C(=O)C1
→ -1.29	0.06
CN1C(=O)c2cccc3cccc(c23)S12OC(=O)c1ccccc12 (configuration not stated)
→ -2.32	.
CCc1ccc2occ(CC(=O)N(Cc3ccc(C)cc3)C3CCS(=O)(=O)C3)c2c1 (configuration not stated)
→ -2.74	1.83
O=C(NCc1cccs1)c1cnc2sccn2c1=O
→ -1.77	.
Cc1ccc(C)c(NC(=O)C2=Cc3cc(Br)ccc3OC=C2)c1
→ -1.6	-0.94
CCc1c(C)nc2ncnn2c1Sc1ccc(N)cc1
→ .	1.4
O=C(Nc1ccc2oc(-c3cccc(Cl)c3)nc2c1)c1ccc([N+](=O)[O-])o1
→ -0.95	1.99
O=C(CCc1nnc2ccc(NCc3ccco3)nn12)NCC1CCCO1 (configuration not stated)
→ .	0.89
Cc1ccc(S(=O)(=O)N2CCC(N3CCOCC3)CC2)cc1Cl
→ .	3.15
Cc1ccc(-c2c3c(=O)n(C)c(=O)n(C)c3cn2-c2cc(C)c(C)cc2N)cc1
→ -2.25	-0.43
Cc1c(C(=O)C(=O)NCCCN(C)C)c2ccccc2n1C
→ -0.19	.
CCOC(=O)C1CCCN(c2c(NCC3COc4ccccc4O3)c(=O)c2=O)C1 (configuration not stated)
→ -0.71	0.12
O=C(Nc1ccc(OCc2ccccc2)cc1)Nc1ccccc1C(=O)NCCCN1CCOCC1
→ -1.8	.
O=C1C2N=NN(Cc3ccccc3F)C2C(=O)N1c1ccc(F)c(F)c1 (configuration not stated)
→ -0.8	-1.72
O=C(NCCCN1CCN(c2ccc(F)cc2)CC1)C1=Cc2cc(Br)ccc2OC1
→ .	0.31
Cc1cc2n(n1)C(c1sccc1C)Nc1c(C)cccc1-2 (configuration not stated)
→ -0.83	-0.37
O=C(Nc1nc(-c2ccc(F)cc2)ns1)c1cccs1
→ 0.6	2
NC(=O)c1cc(S(=O)(=O)N2CCN(c3ccc(F)cc3)CC2)cs1
→ .	0.02
Cc1nn2c3c(cnc2c1-c1ccc(Cl)cc1)C(=O)CC(c1ccccc1)C3 (configuration not stated)
→ -1.74	-1.51
O=C(CC1CCCC1)NCc1n[nH]c(=O)c2ccccc12
→ .	0.22
CC(C)(C)c1ccc(S(=O)(=O)N2CCCC(C(=O)O)C2)cc1 (configuration not stated)
→ -1.17	-0.3
Cc1nc2ccccc2c2c1C(=O)N(c1ccccc1Cl)C2=O
→ -0.59	-1
CCCC(CCC)C(=O)Nc1nnc2n1CCCS2
→ .	2.12
Cc1c(C(=O)N2CCN(C)CC2)oc2c1C(=O)CC(C)(C)C2
→ -0.31	.
Cc1cc2[nH]c(=O)c(=O)[nH]c2cc1S(=O)(=O)N1CCOc2ccccc2C1
→ .	1.49
Cc1c(C(=O)C(=O)N2c3ccc(F)cc3CCC2C)c2ccccc2n1C (configuration not stated)
→ -0.48	0.93
CC(C)Cn1cc(NC(=O)N2CCc3ccccc32)c2ccccc2c1=O
→ .	2.76
Cc1ccc(-c2c(NCc3ccc(N(C)C)cc3)c(=O)c2=O)cc1C
→ .	-0.99
O=[N+]([O-])c1cccc(N=C/C(O)=C/C=C/Nc2cccc([N+](=O)[O-])c2)c1
→ -2.67	.
COc1ccc(NS(=O)(=O)c2ccc(-c3ccc(=O)[nH]n3)s2)cc1OC
→ .	1.12
O=C1CC(c2cccs2)CC2=C1C(c1ccc(Cl)c(F)c1)Nc1ccccc1N2 (configuration not stated)
→ -1.79	0.15
FC(F)(F)C(=C(SSCc1ccccc1)C(F)(F)C(F)(F)F)C(F)(F)F
→ 4.34*	.
O=C(NC1CCCC1)c1noc2ncnc(N3CCOCC3)c12
→ .	-1.34
CCCCN(c1ccccc1)S(=O)(=O)c1cc(Br)cnc1N
→ -2.62	0.84
CCOc1ccc2nc(SCC(=O)Nc3ccc4ccccc4c3)sc2c1
→ -4.25	.
COC(=O)C(CC(C)C)NC(=O)N1CCOCC1 (configuration not stated)
→ -0.42	0.03
O=C(OCc1cc(=O)n2c(-c3ccccc3)csc2n1)c1ccc(F)cc1
→ .	-1.01
Cc1ccc(C(=O)N2CCN(c3ncccn3)CC2)cc1NC1=NC2CS(=O)(=O)CC2S1 (configuration not stated)
→ -1.41	-0.09
CCOC(=O)CNC(=O)CSc1nnc(SCC(=O)NCC(=O)OCC)s1
→ -0.88	.
Oc1ccc2ncccc2c1C(Nc1ccccn1)c1ccccc1 (configuration not stated)
→ 0.28	-0.9
COc1cccc(S(=O)(=O)Nc2ccc3sc(C)nc3c2)c1
→ -0.33	.
CCNC(=O)c1c(O)c2cccc3c2n(c1=O)CC3
→ .	1.47
Cc1cccc(N2CC(O)=C(c3nc4ccccc4n3C)C2=N)c1
→ -0.81	0.39
COc1ccccc1-c1coc2cc(OC(=O)c3cccs3)ccc2c1=O
→ -1.8	0.98
COC(=O)C1=C(C)Nc2nc(SCC(C)C)[nH]c(=O)c2C1c1cccc(F)c1 (configuration not stated)
→ -1.68	5.29
Cc1c(C(=O)N2CCCC2)oc2c1-c1nn(CC(=O)N3CCc4ccccc43)cc1CC2
→ .	1.71
CCN(CC)CCN(C(=O)C1=COCCO1)c1nc2ccc(F)cc2s1
→ .	0.95
CC1CC(C)CN(C(=O)[C@H]2[C@@H]3C[C@@H]4[C@H]2C(=O)O[C@@H]4C3)C1 (some centres not stated)
→ -0.29	2.01
COc1ccc(-c2cn3c(n2)sc2cc(C(=O)N4CCCC4)ccc23)cc1
→ .	0.83

(next part)
Fields – CDC25B-CDK2 inh	HIV TAR-Tat
O=C1COc2cc(-c3c(Nc4cccc(F)c4)c(=O)c3=O)ccc2N1
→ .	-0.29
CCCn1nc(-n2cnnc2)c(NC(=O)C2CC2)c1C
→ -2.63	0.88
COc1cccc(NC(=S)N(CCC#N)C2CCCCC2)c1
→ -0.89	.
CCOC(=O)c1cc(-c2ccc(S(=O)(=O)N(Cc3cccs3)C(C)C)s2)on1
→ .	1.43
COc1ccc(CN2CCc3nc(Nc4cc(OC)ccc4OC)ncc3C2)cc1
→ .	0.53
CCOc1ccc(S(=O)(=O)[C@H]2CS(=O)(=O)C[C@@H]2N2CCN(c3ccccn3)CC2)cc1
→ -0.81	0.23

Compound activity: PubChem BioAssay, Center for Chemical Genomics, University of Michigan
